# Compound activity (PubChem)
# FGF22 binding: binders of human FGF22 protein, primary screen, FGF22 synaptogenesis inhibitor project, biophysical, thermal shift, single point; Fibroblast growth factor 22 (Homo sapiens), Q9HCT0; recombinant FGF22 thermal shift, SYPRO orange fluorescence; percent of sucrose octasulfate shift, DMSO zero; calls only at 9.99 µM; 340,000 compounds, 1.5% hits;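 active means melting point raised past a set limit in the mean and every replicate; three in four hits are not shown here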
# HNF4A DNA FP: change in binding of human HNF4A to DNA, primary screen, biochemical, fluorescence polarization, FITC-DNA; activity change, % at 10 µM; 1 h; 360,000 compounds, 0.3% hits; AID 1224865, 2016; in the data active means activity change above about 30%, passing the limit was not always enough;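 further: controls were the assay level and a saturating level of protein; the project sought stronger binding though the title names inhibitors; some compounds called inactive have numbers as strong as hits; positive values seem to mean higher polarization but the record does not say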
# Target sequence (P41235 whole entry, looked up): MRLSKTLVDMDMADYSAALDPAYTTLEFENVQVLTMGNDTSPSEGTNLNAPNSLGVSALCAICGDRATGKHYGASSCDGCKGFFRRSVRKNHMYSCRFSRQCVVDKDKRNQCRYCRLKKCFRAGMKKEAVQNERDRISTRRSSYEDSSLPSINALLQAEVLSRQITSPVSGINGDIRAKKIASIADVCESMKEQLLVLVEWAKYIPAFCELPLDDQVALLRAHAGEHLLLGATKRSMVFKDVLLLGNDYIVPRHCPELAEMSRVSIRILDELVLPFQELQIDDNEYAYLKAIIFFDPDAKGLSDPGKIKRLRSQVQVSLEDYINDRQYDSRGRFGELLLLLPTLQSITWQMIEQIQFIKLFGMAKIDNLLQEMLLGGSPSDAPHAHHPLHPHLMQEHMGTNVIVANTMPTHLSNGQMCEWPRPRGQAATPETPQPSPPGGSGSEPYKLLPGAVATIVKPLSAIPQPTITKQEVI
# E coli growth: E. coli growth inhibition, primary screen, OD600 | Escherichia coli growth, 23 h; stronger effect = lower value | OD600 absorbance (no concentration beside the values) | 330,000 compounds, 0.21% hits;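 active means OD600 absorbance below the run mean of sample wells minus 3.6 SD, in any replicate, cut at about 0.56 in these data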;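 further: stock transfer was 300 nL into about 60 µL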
# ALR H2O2 inh: inhibitors of human ALR sulfhydryl oxidase, primary screen, biochemical, H2O2 detection, HRP-luminol luminescence, single point; FAD-linked sulfhydryl oxidase ALR (Homo sapiens), P55789; AID 485317, 2010; purified ALR, DTT oxidation; 290,000 compounds, 3.8% hits; inhibition, % (concentration not given with the values);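 active means mean and each replicate at 75% or more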;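 further: stock transfer was 7.5 nL into about 7.5 µL; 0% = neutral wells and 100% = wells with inactivated enzyme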
# Target sequence (P55789 whole entry, looked up): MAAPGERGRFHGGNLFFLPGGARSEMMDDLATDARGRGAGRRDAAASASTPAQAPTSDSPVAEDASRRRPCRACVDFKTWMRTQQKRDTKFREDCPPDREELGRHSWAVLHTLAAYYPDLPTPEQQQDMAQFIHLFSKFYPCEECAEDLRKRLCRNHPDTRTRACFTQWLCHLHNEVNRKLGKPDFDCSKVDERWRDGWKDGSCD
# UCH37 inh: inhibitors of human UCH37 deubiquitinase, primary screen, biochemical, Ub-AMC cleavage, fluorescence; Ubiquitin carboxyl-terminal hydrolase isozyme L5 (Homo sapiens), Q9Y5K5; purified proteasome/UCH37; inhibition, % (no concentration beside the values); 330,000 compounds, 0.33% hits;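 active means mean of two replicates above 20%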;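 further: 0% = compound-free wells with enzyme and 100% = wells lacking proteasome; stock transfer was 100 nL into about 20 µL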
# Target sequence (Q9Y5K5 whole entry, looked up): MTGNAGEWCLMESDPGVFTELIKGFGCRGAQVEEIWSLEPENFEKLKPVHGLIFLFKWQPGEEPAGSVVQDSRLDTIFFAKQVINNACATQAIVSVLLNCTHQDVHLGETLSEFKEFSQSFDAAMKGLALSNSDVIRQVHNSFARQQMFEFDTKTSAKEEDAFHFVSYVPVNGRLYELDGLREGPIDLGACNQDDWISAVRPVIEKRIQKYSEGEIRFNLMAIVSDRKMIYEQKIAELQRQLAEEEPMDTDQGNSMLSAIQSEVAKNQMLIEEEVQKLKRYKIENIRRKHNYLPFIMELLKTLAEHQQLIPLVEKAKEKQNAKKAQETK
#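 Signal – fluorescence, ex 355 nm, em 460 nm · System – Proteasome-bound UCH37 · Input – 0.15 nM proteasome as dispensed · Timing – 30 min preincubation with enzyme, 25 min cleavage at room temperature · Read-out basis – percent inhibition of cleavage signal versus uninhibited and no-proteasome wells · Medium – Tris-HCl pH 7.4 with ATP-MgCl2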
# Ecoli rRNA inh: reduced GFP signal of wild-type E. coli, primary screen, bacterial rRNA inhibitor project, GFP/RFP fluorescence, OD600, single point | 350,000 compounds, 1.6% hits | GFP signal change (wild-type ribosome), % (test concentration not listed) | E. coli WT GFP vs humanized-ribosome RFP mutants, 24 h; stronger effect = lower value; DMSO median 0, no signal -100;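 active means significant combined selectivity score with lowered wild-type GFP, culture density cut under 30%, mutant RFP and density less affected; inactive means any of these conditions unmet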; further: one replicate is shown; some compounds called inactive have numbers as strong as hits
# Beta2AR agonist: beta2AR agonists driving receptor internalization, primary screen, cell-based, FAP fluorogen, flow cytometry; Am2.2-beta2AR cells; reference of the scale not given here; 340,000 compounds, 0.43% hits; AID 504454, 2011; response, % (test concentration not listed);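 active means response above a set limit, near 3 SD of response in nonfluorescent compounds, cut at about 42% in these data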;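 further: stock transfer was 100 nL into about 11 µL; a reference agonist was the positive control; negative values mostly stem from fluorescent compounds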
# Ecoli rRNA inh OD600: further read-out of Ecoli rRNA inh, marked with its call; OD600 change, %; measured here: OD600 growth;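 optical density of the mix in the first replicate; 0 = DMSO median and -100 = no signal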
# Ecoli rRNA inh RFP: also measured in Ecoli rRNA inh; calls as there; RFP signal change, %; measured here: RFP humanized mutant strains;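 first replicate; 0 = DMSO median and -100 = no signal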
# The depositor's hits bear a star; i = inactive; . = not tested or not shown; & = joins results of further samples. This is a subset. The share of hits here may be higher or lower than overall.
SMILES,FGF22 binding,HNF4A DNA FP,E coli growth,ALR H2O2 inh,UCH37 inh,Ecoli rRNA inh,Ecoli rRNA inh OD600,Ecoli rRNA inh RFP,Beta2AR agonist
Cc1ccc(C2=N/C(=C/c3cccs3)C(=O)N2Nc2ccccc2)cc1,.,2.0,0.72,-8,4.4,5,2,-0.8,6
COc1ccc(/C=C(/C(=O)NCc2ccccc2)c2ccccc2)cc1,.,1.1,0.67,-16,1.5,.,.,.,8
Cc1ccc(S(=O)(=O)Nc2c(C)cc([N+](=O)[O-])cc2C)cc1,i,-3.3,.,.,.,-22*,-9.0*,1.2*,-10
O=C(OC1CC2CC1[C@H]1CCCCN1C2=O)N1CCCCC1 (stereo partly specified),i,0.8,.,.,.,16,10,2.1,.
C[C@H](CO)N1C[C@H](C)[C@@H](CN(C)Cc2ccccc2)Oc2c(NC(=O)C3CC3)cccc2C1=O,i,0.8,.,-1,4.6,-8&-19,-11&-23,-1.1&-6.3,3
CSc1ncc(Cl)c(C(=O)Nc2cccc(C)c2)n1,.,0.5,0.66,2,1.5,.,.,.,-12
Cc1cccc(/N=C/C2=C(O)CC(C)(C)CC2=O)n1,i,-1.3,.,-2,.,3,14,-3.1,-7
NC(=O)c1ccsc1NC(=O)C1CCCN1S(=O)(=O)c1ccc(Cl)cc1 (stereo unspecified),.,-3.5,0.68,-9,5.1,.,.,.,0
Cc1ccccc1CC1(CO)CCCN(Cc2ccn[nH]2)C1 (stereo unspecified),i,1.0,0.64,-9,-0.3,12,2,7.2,4
Cc1ccc2c(c1)C1CN(C)CCC1N2C(=S)NC(=O)c1ccc(Br)cc1 (stereo unspecified),i,-4.5,0.66,32,6.3,-57,-76,-21,-2
CCOC(=O)c1ccccc1NC(=O)C1CC(=O)N(C2CCCCC2)C1 (stereo unspecified),i,-1.2,0.7,.,-0.8,-5,-7,-1.1,0
Cc1ccc(NC(=O)COC(=O)c2cccnc2Cl)cc1S(=O)(=O)N1CCOCC1,i,-1.1,0.67,-3,1.7,-25*,-16*,3.2*,1
COc1ccccc1NC(=O)c1nn(-c2ccccc2)ccc1=O,.,-2.3,0.74,17,8.0,.,.,.,-2
CN(C)S(=O)(=O)c1ccc(Cl)c(C(=O)NC2CCCCCCC2)c1,i,0.1,0.69,0,-0.5,4,6,-2.1,-9
CN(C)Cc1ccc(F)cc1Sc1cc(Cl)ccc1Cl,.,-1.3,0.63,-3,-0.2,.,.,.,-2
CCCc1ccc(OCC(O)CN2CCc3ccccc3C2)cc1 (stereo unspecified),i,0.9,0.61,.,2.6,-11,-36,24,4
COc1ccccc1/C=C/C=N/n1c(C2CCCCC2)n[nH]c1=S,i,-0.5,.,26,.,-5,3,6.3,-5
C[C@@H]1NC(=O)/C(=C\c2ccccc2Cl)NC1=O,i,3.9,0.63,.,3.0,21,2,1.7,4
CCCS(=O)(=O)N1CCN(C(=O)c2ccc(-c3ccccc3)cc2)CC1,.,-3.2,0.72,-17,2.2,.,.,.,-4
COc1ccc(OC)c(CN2CCN(S(=O)(=O)c3ccccc3)CC2)c1,i,3.8,0.7,.,6.7,-15,-16,-2.1,6
Cc1[nH]c(=O)c(C#N)c2c1COC(C)(C)C2,.,0.0,0.69,-4,-6.3,.,.,.,0
O=C(CP(=O)(c1ccccc1)c1ccccc1)Nn1cnnc1,.,1.7,0.73,-6,1.7,.,.,.,-1
COc1cc(Cl)c(C)cc1NC(=O)CC1CCCC1,i,0.6,0.66,-12,0.7,-6,-23,-1.1,2
Cc1cccc(N2CCN(C(=S)NC3CCCCC3)CC2)c1C,i,4.9,0.67,-2,1.8,18,-3,-4.5,14
COc1cc(OC)cc(C(=O)OCC(=O)c2ccc(S(=O)(=O)N3CCCCC3)cc2)c1,i,3.4,0.7,.,4.1,.,.,.,.
COc1ccc(C(=O)Nc2ccccc2C(=O)NC(Cc2ccc(O)cc2)C(=O)NNC(=O)c2ccc(C)cc2)cc1 (stereo unspecified),i,-1.4,0.71,1,-12,9,11,4.0,-3
Clc1ccc(OCCN2CCCCC2)c(Cl)c1,.,-2.1,0.63,-16,-0.1,.,.,.,-2
CC(C)C1Cc2c(sc(NC(=S)NC(=O)c3ccccc3)c2C#N)CO1 (stereo unspecified),i,6.0,0.69,-11,4.1,5,7,0.2,2
O=C(NCCCN1CCOCC1)C(=O)NCc1ccc(Cl)cc1,i,1.1,0.7,0,-0.4,11,4,-0.7,14
Cc1ccc(S(=O)(=O)N2CCN(C(=O)c3cc4c(s3)CCCC4)CC2)cc1,i,1.2,0.71,0,-3.1,-1,8,-0.1,-5
COCCN(C(=O)COC(=O)C1=COCCO1)c1c(N)n(Cc2ccccc2)c(=O)[nH]c1=O,.,-0.8,0.7,3,2.7,22,12,1.2,-1
COc1ccc(CCNC(=O)CCn2c(=O)oc3ccccc32)cc1,i,3.5,0.67,-6,2.6,-3,-2,-4.6,-7
O=S(=O)(NCCSc1ccccc1)c1cccs1,.,3.2,0.72,-13,0.7,.,.,.,-2
Cc1ccc(-n2nnnc2CNC(=O)c2ccc(Br)o2)cc1C,i,3.0,0.7,-3,4.0,-4,3,-5.3,-7
Cc1ccc(C(=O)c2cc([N+](=O)[O-])ccc2N2CCCCC2)cc1,.,3.0,0.67,.,1.5,.,.,.,41
CN(NC1OC(=O)c2ccccc21)c1c([N+](=O)[O-])cc(C(F)(F)F)cc1[N+](=O)[O-] (stereo unspecified),i,1.7,0.68,-15,8.1,-2,6,-1.2,-3
C#CC[N+](C)(C)CCCCCCCCCCCC,i,-1.9,0.62,-34,7.9,.,.,.,1
OCCOCCn1c(CCNc2nc(-c3ccc(Cl)cc3)cs2)nc2cc(Cl)c(Cl)cc21,i,-1.1,0.68,71,6.8,-2,0,-3.4,8
O=C(Nc1cccc(F)c1)Nc1c[nH]c(=O)[nH]c1=O,i,-0.3,0.66,-5,2.9,9,14,-0.8,11
CC(NC(=O)CNC(=O)[C@@H]1Cc2ccccc2CN1)c1ccccc1 (stereo partly specified),i,2.2,0.58,3,1.1,21,14,1.6,2
COc1ccc(C(=O)c2c[nH]c3ccccc23)cc1,.,-0.9,0.66,-11,0.9,.,.,.,4
CCOc1ccc(CCN2C(=S)N([C@@H](Cc3ccc(O)cc3)CN3CCC[C@@H]3CN3C(=S)NC[C@@H]3Cc3ccccc3)C[C@@H]2Cc2ccccc2)cc1,i,-1.1,.,.,.,17,10,7.8,.
Cc1ccn(CCNC(=O)C2CCC(=O)N(CCc3ccc(Cl)cc3)C2)n1 (stereo unspecified),i,1.5,0.69,-5,0.0,13,8,1.0,-4
Cc1cccc(N2CCN(S(=O)(=O)c3ccc4c(c3)C(C)(C)C(=O)N4C)CC2C)c1 (stereo unspecified),i,-0.1,0.71,8,1.9,-2,-28,-0.1,4
O=C(Nc1nc(-c2ccc(S(=O)(=O)N3CCCC3)cc2)cs1)c1ccco1,.,2.4,0.69,-9,1.6,.,.,.,-6

# Individual results from the results shown:
# `C#CC[N+](C)(C)CCCCCCCCCCCC` @ E coli growth = 0.62
# `O=C(Nc1cccc(F)c1)Nc1c[nH]c(=O)[nH]c1=O` @ E coli growth = 0.66
# `Cc1ccn(CCNC(=O)C2CCC(=O)N(CCc3ccc(Cl)cc3)C2)n1` (stereo unspecified) @ UCH37 inh = 0.0
# `Cc1ccc(C(=O)c2cc([N+](=O)[O-])ccc2N2CCCCC2)cc1` @ E coli growth = 0.67
# `CN(NC1OC(=O)c2ccccc21)c1c([N+](=O)[O-])cc(C(F)(F)F)cc1[N+](=O)[O-]` (stereo unspecified) @ E coli growth = 0.68

# Remaining list, next part:
SMILES,FGF22 binding,HNF4A DNA FP,E coli growth,ALR H2O2 inh,UCH37 inh,Ecoli rRNA inh,Ecoli rRNA inh OD600,Ecoli rRNA inh RFP,Beta2AR agonist
O=C(OCC(=O)N1CCN(c2ccccc2)CC1)c1ccc([N+](=O)[O-])s1,i,-2.2,0.65,-45,61*,-64,-78,-25,-4
O=C(Cc1cccs1)Nc1nc(-c2ccc(F)cc2F)cs1,.,-2.6,0.58,3,2.0,.,.,.,-2
c1ccc(-c2ccc(OCCN3CCOCC3)cc2)cc1,i,-0.7,0.65,-4,-1.3,-14,-13,-2.1,-1
CCc1cc(=O)oc2cc(OCC(=O)N3CCC(C(=O)O)CC3)ccc12,i,5.8,0.68,-9,-23,.,.,.,-6
COc1ccc(C(=O)NNC(=S)NC(=O)c2cccc([N+](=O)[O-])c2)cc1,i,4.2,0.69,98*,3.5,-26*,-17*,-8.3*,-5
CN1C(=O)NC(c2ccc(O)cc2)C(C(=O)c2cccs2)C1(O)C(F)(F)F (stereo unspecified),i,7.0,0.52,1,3.8,18,1,1.5,8
CC(C)CN(C(=O)CN1C(=O)NC(c2ccccc2)(c2ccccc2)C1=O)C1CCS(=O)(=O)C1 (stereo unspecified),i,3.0,0.68,-3,4.2,2,2,-0.4,-8
COC(CNC(=O)c1ccc(-n2c(=S)[nH]c3ccccc3c2=O)cc1)OC,i,-0.9,0.71,-2,4.9,4,3,-2.0,-9
CN(C)CCCNC(=O)c1ccc2[nH]c3ccccc3c2c1,.,-0.6,0.66,-6,-35,.,.,.,-4
CCOC(=O)c1ccc(NS(=O)(=O)c2c(C)n[nH]c2C)cc1,i,2.4,0.65,3,3.1,.,.,.,-10

# Rewritten as tab-separated lines: entries from further up.
Molecule	FGF22 binding	HNF4A DNA FP	E coli growth	ALR H2O2 inh	UCH37 inh	Ecoli rRNA inh	Ecoli rRNA inh OD600	Ecoli rRNA inh RFP	Beta2AR agonist
c1ccc(-c2ccc(OCCN3CCOCC3)cc2)cc1	i	-0.7	0.65	-4	-1.3	-14	-13	-2.1	-1
CC(C)CN(C(=O)CN1C(=O)NC(c2ccccc2)(c2ccccc2)C1=O)C1CCS(=O)(=O)C1 (stereo unspecified)	i	3.0	0.68	-3	4.2	2	2	-0.4	-8
O=C(Cc1cccs1)Nc1nc(-c2ccc(F)cc2F)cs1	.	-2.6	0.58	3	2.0	.	.	.	-2
CN(C)CCCNC(=O)c1ccc2[nH]c3ccccc3c2c1	.	-0.6	0.66	-6	-35	.	.	.	-4
COc1ccc(C(=O)NNC(=S)NC(=O)c2cccc([N+](=O)[O-])c2)cc1	i	4.2	0.69	98*	3.5	-26*	-17*	-8.3*	-5
COC(CNC(=O)c1ccc(-n2c(=S)[nH]c3ccccc3c2=O)cc1)OC	i	-0.9	0.71	-2	4.9	4	3	-2.0	-9
CCOC(=O)c1ccc(NS(=O)(=O)c2c(C)n[nH]c2C)cc1	i	2.4	0.65	3	3.1	.	.	.	-10
